NPYLR7 agonist = mosquito NPYLR7 agonism | HEK293T NPYLR7/Galpha15, GCaMP6s calcium fluorescence | activation, % at 10 µM | 0.15% of 270,000 active; in the data active = activation above about 40%;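 also: 0% = vehicle and 100% = reference agonist at the receptor; some compounds past the cut are filed as inactive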
NPYLR7 agonist max-min = second read-out of NPYLR7 agonist, no call of its own (marks repeat the call); activation, %; measured here: Max-Min RFU normalised activation; some inactives read as strong as hits;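 span of the calcium signal over five minutes; 0% = vehicle and 100% = native peptide agonist; compound fluorescence can raise it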
* marks the source's active call; other numbers are inactive results; & = joins results of further samples.

Each structure is followed by: NPYLR7 agonist	NPYLR7 agonist max-min
(1) OC(c1ccc(CN(Cc2ccco2)Cc2ccccc2F)o1)(c1cccs1)c1cccs1
  12	13
(2) CC(=O)N(C)Cc1nccn1Cc1ccccc1F
  -3	1
(3) COCCNc1cc(-c2ncnc3c2CCC3)c2cc[nH]c2n1
  1	-3
(4) CN(C)c1ccc(NC(=O)CC(C)(C)C)cc1CN(Cc1ccco1)C(=O)c1ccccc1Cl
  15	11
(5) CSCC(=O)N1CCCC(CNC(=O)c2ccc(-c3ccccc3)cc2)C1 (stereo not drawn)
  8&12	5&11
(6) CCN(CC)C(=O)Cn1nc(C)c2ccccc2c1=O
  15	8
(7) Cc1noc(-c2cccc(C(F)(F)F)c2)c1C(=O)NCCCN1CCOCC1
  0	2
(8) Cc1ccc(CN2CCC(CN(C)Cc3sc(N4CCCC4)nc3Cl)CC2)o1
  5	-6
(9) N#Cc1ncn(Cc2cc(F)cc3c2OC(c2ccccc2)OC3)n1 (stereo not drawn)
  -1	3
(10) O=C(OC1CCOC1=O)c1ccc(S(=O)(=O)N2CCCCCC2)cc1 (stereo not drawn)
  -5	-6
(11) Cc1ccc(C)c(NC(=O)CSc2nc(=O)n3ccccc3n2)c1
  2	2
(12) COc1ccc(CC(=O)NC(Cc2ccccc2)c2nnc(SCc3cccc(C)c3)n2-c2ccc([N+](=O)[O-])cc2)cc1 (stereo not drawn)
  3	10
(13) CC1(C)Oc2ccc(NC(=O)c3ccnc(NC4CC4)c3)cc2O1
  -2	-4
(14) COC(=O)c1ccc(N2C(=O)CSC2c2cccc(Br)c2)cc1 (stereo not drawn)
  -6	-11
(15) Oc1ccc2ccccc2c1SSc1c(O)ccc2ccccc12
  -9	-14
(16) CC1(C)C[C@H]2C[C@@H](O)[C@H](NC(=O)Nc3ccccc3)[C@]2(O)CO1
  2	9
(17) Cc1ccc(NC(=O)N(CC(=O)N2CCc3sccc3C2COc2ccccc2C)C2CC2)cc1 (stereo not drawn)
  -3	0
(18) Cc1ccc(-c2csc(-n3nc(C)cc3NC(=O)C(C)(C)C)n2)cc1
  -8	-12
(19) Cc1cc(Cl)c(Cl)cc1S(=O)(=O)NCc1ccco1
  3	11
(20) CCC(=O)N1CCN(C(=O)c2cn(CC3CCCO3)cc3c(=O)n(-c4ccccc4)nc2-3)CC1 (stereo not drawn)
  -1	0

(next part)
Each structure is followed by: NPYLR7 agonist	NPYLR7 agonist max-min
(21) COc1ccc(CCN(C)c2cc(Cl)nc(SCc3cccc(C(=O)N4CCN(c5cccc(Cl)c5)CC4)c3)n2)cc1OC
  11	19
(22) Cc1cc(NC(=O)C(C)Oc2ccccc2)n(-c2ncnc3c2cnn3-c2ccc(Cl)cc2)n1 (stereo not drawn)
  8	9
(23) CC(C)(C)c1cc2nc(C(=O)N3CCN(c4ccccc4Cl)CC3)cc(-c3ccccc3F)n2n1
  9	6
(24) O=S(=O)(Cc1ccccc1)NCC1CCCO1 (stereo not drawn)
  13	7
(25) COc1cccc(Cn2c(=O)c(C(=O)NCCc3ccccn3)nn(-c3ccc(C)cc3)c2=O)c1
  3	6
(26) O=C(NCCc1cccs1)c1ccc2oc(Cc3ccccc3)nc2c1
  -7	-9
(27) CCCC(=O)NC(c1ccco1)c1ccc2cccnc2c1O (stereo not drawn)
  -3	-10
(28) Cc1cc(C(C)(C)C)cc(C)c1CS(=O)(=O)C(C)C(=O)NC1CCCC1 (stereo not drawn)
  7	4
(29) CC(C)c1nccc(CN(C)Cc2ccc3nsnc3c2)n1
  -3	1
(30) COC(=O)[C@@H]1CCCN1C1CCN(c2nc(C)c3ccc(S(C)(=O)=O)cc3n2)CC1
  6	5
(31) NC(=O)c1ccccc1/C=C/c1ccccc1
  -2	-3
(32) CCN(CC)C(=O)Oc1ccc2c(ccn2Cc2ccc(F)c(C)c2)c1-c1ccc(C#N)cc1
  13	9
(33) CCOC(=O)c1ccc(NC(=O)N2CCSC2c2ccc(OC)c(OCc3ccccc3)c2)cc1 (stereo not drawn)
  22	17
(34) COc1cc2c(cc1OC)C(c1ccccc1)N(C(=O)c1ccco1)CC2 (stereo not drawn)
  15	3
(35) CCc1cc(C2CCCN2S(=O)(=O)c2ccc(CC(C)C)cc2)on1 (stereo not drawn)
  4	3
(36) COc1cccc(NC(=O)CSc2nc(=O)n3ccc(C)cc3n2)c1
  -1	-3
(37) CN(CCC#N)S(=O)(=O)c1cc(Br)ccc1Br
  -18	-26
(38) O=C(c1ccc(CSc2nc(Cl)cc(N3CCN(c4cccc(Cl)c4)CC3)n2)cc1)N1CCN(c2ccccc2F)CC1
  1	12
(39) O=C(NC(c1ccccc1)c1ccccn1)C1CCN(CCCOc2ccc(F)cc2)CC1 (stereo not drawn)
  1	-5
(40) O=C1NC(=Nc2ccccc2Cl)S/C1=C\c1ccsc1
  1	-8

Part of the list above, as tab-separated lines.
No.	molecule	NPYLR7 agonist	NPYLR7 agonist max-min
15	Oc1ccc2ccccc2c1SSc1c(O)ccc2ccccc12	-9	-14
16	CC1(C)C[C@H]2C[C@@H](O)[C@H](NC(=O)Nc3ccccc3)[C@]2(O)CO1	2	9
17	Cc1ccc(NC(=O)N(CC(=O)N2CCc3sccc3C2COc2ccccc2C)C2CC2)cc1 (stereo not drawn)	-3	0
18	Cc1ccc(-c2csc(-n3nc(C)cc3NC(=O)C(C)(C)C)n2)cc1	-8	-12
19	Cc1cc(Cl)c(Cl)cc1S(=O)(=O)NCc1ccco1	3	11
20	CCC(=O)N1CCN(C(=O)c2cn(CC3CCCO3)cc3c(=O)n(-c4ccccc4)nc2-3)CC1 (stereo not drawn)	-1	0
21	COc1ccc(CCN(C)c2cc(Cl)nc(SCc3cccc(C(=O)N4CCN(c5cccc(Cl)c5)CC4)c3)n2)cc1OC	11	19
22	Cc1cc(NC(=O)C(C)Oc2ccccc2)n(-c2ncnc3c2cnn3-c2ccc(Cl)cc2)n1 (stereo not drawn)	8	9
23	CC(C)(C)c1cc2nc(C(=O)N3CCN(c4ccccc4Cl)CC3)cc(-c3ccccc3F)n2n1	9	6
24	O=S(=O)(Cc1ccccc1)NCC1CCCO1 (stereo not drawn)	13	7
25	COc1cccc(Cn2c(=O)c(C(=O)NCCc3ccccn3)nn(-c3ccc(C)cc3)c2=O)c1	3	6
26	O=C(NCCc1cccs1)c1ccc2oc(Cc3ccccc3)nc2c1	-7	-9
27	CCCC(=O)NC(c1ccco1)c1ccc2cccnc2c1O (stereo not drawn)	-3	-10
28	Cc1cc(C(C)(C)C)cc(C)c1CS(=O)(=O)C(C)C(=O)NC1CCCC1 (stereo not drawn)	7	4
29	CC(C)c1nccc(CN(C)Cc2ccc3nsnc3c2)n1	-3	1
30	COC(=O)[C@@H]1CCCN1C1CCN(c2nc(C)c3ccc(S(C)(=O)=O)cc3n2)CC1	6	5
31	NC(=O)c1ccccc1/C=C/c1ccccc1	-2	-3
32	CCN(CC)C(=O)Oc1ccc2c(ccn2Cc2ccc(F)c(C)c2)c1-c1ccc(C#N)cc1	13	9
33	CCOC(=O)c1ccc(NC(=O)N2CCSC2c2ccc(OC)c(OCc3ccccc3)c2)cc1 (stereo not drawn)	22	17
34	COc1cc2c(cc1OC)C(c1ccccc1)N(C(=O)c1ccco1)CC2 (stereo not drawn)	15	3
35	CCc1cc(C2CCCN2S(=O)(=O)c2ccc(CC(C)C)cc2)on1 (stereo not drawn)	4	3
36	COc1cccc(NC(=O)CSc2nc(=O)n3ccc(C)cc3n2)c1	-1	-3
37	CN(CCC#N)S(=O)(=O)c1cc(Br)ccc1Br	-18	-26
38	O=C(c1ccc(CSc2nc(Cl)cc(N3CCN(c4cccc(Cl)c4)CC3)n2)cc1)N1CCN(c2ccccc2F)CC1	1	12
39	O=C(NC(c1ccccc1)c1ccccn1)C1CCN(CCCOc2ccc(F)cc2)CC1 (stereo not drawn)	1	-5
40	O=C1NC(=Nc2ccccc2Cl)S/C1=C\c1ccsc1	1	-8

Two of the compounds above, with bars between the fields:
cpd | Molecule | NPYLR7 agonist | NPYLR7 agonist max-min
37 | CN(CCC#N)S(=O)(=O)c1cc(Br)ccc1Br | -18 | -26
38 | O=C(c1ccc(CSc2nc(Cl)cc(N3CCN(c4cccc(Cl)c4)CC3)n2)cc1)N1CCN(c2ccccc2F)CC1 | 1 | 12

The list goes on:
Each structure is followed by: NPYLR7 agonist	NPYLR7 agonist max-min
(41) CC1CCc2sc(C(=O)Nc3ccccc3SCC(N)=O)cc2C1 (stereo not drawn)
  5	2
(42) CCOCC(=O)N[C@H]1CN(CC(C)C)c2ccccc2N(CC(=O)NCCc2ccc(O)cc2)C1=O
  0	-1
(43) CCCn1nc(C(=O)N(C2CC2)C(C)c2cccc(C(F)(F)F)c2)ccc1=O (stereo not drawn)
  -3	-4
(44) c1cc(-c2nc3c(c(NCC4COCCO4)n2)CCNC3)ccn1 (stereo not drawn)
  1	-1
(45) Cc1ccccc1-c1noc(-c2ccc(OC(F)(F)C(F)(F)C(F)F)cc2)n1
  -3	-12
(46) CCN(CC(=O)N(Cc1cccn1Cc1ccccc1Cl)CC(C)C)C(=O)C(C)(C)CCl
  -4	1
(47) Cc1nn(C)c(Oc2ccc(F)cc2)c1C=O
  6	2
(48) O=C(O)CCN(Cc1ccco1)c1nc(-c2cccc(Br)c2)nc2ccccc12
  -8	-1
(49) Cn1ccnc1CNC(=O)NCc1nnc(-c2ccccc2)s1
  0	0
(50) CC(C)CNC(=O)c1cccc(NS(=O)(=O)c2ccc(Br)cc2)c1
  1	1
(51) O=C(OCC1c2ccccc2-c2ccccc21)ON1C(=O)CCC1=O
  6	29
(52) CCC(C)Oc1cccc(NS(=O)(=O)c2c[nH]c(C(=O)O)c2)c1 (stereo not drawn)
  3	4
(53) O=S(=O)(Nc1nccnc1N1CCN(S(=O)(=O)c2ccc3ccccc3c2)CC1)c1ccc2c(c1)OCCO2
  4	12
(54) O=C(Nc1ccnn1C1CCN(Cc2c(F)ccc(F)c2F)CC1)C1CCCC1
  12	9
(55) COCCN(CC(=O)N(CCc1c[nH]c2ccccc12)Cc1ccc(OC)cc1)C(=O)c1cccc(Cl)c1
  -9	-8
(56) O=C(COCc1ccccc1)N(Cc1ccccc1)Cc1nc2cc(Cl)ccc2o1
  -3	-11
(57) Cc1cc(=O)c(C(=O)NC(C)c2ccc(OCC3CC3)c(F)c2)c[nH]1 (stereo not drawn)
  10	5
(58) Cc1ccccc1CCNC(=O)N(C)CCn1cnnc1
  6	3
(59) CC1(C(=O)Nc2ccc(C#N)cc2)Cc2ccccc2C(=O)O1 (stereo not drawn)
  0	9
(60) CC1(C)CN(C(=O)NC2CCCCC2)C2(S1)C(=O)N(Cc1ccccc1Cl)c1ccccc12 (stereo not drawn)
  1	4

(cont.)
Each structure is followed by: NPYLR7 agonist	NPYLR7 agonist max-min
(61) NC(=O)C1Cc2ccccc2N1C(=O)c1ccc2ccccc2c1 (stereo not drawn)
  -4	-5
(62) CN(C(=O)CSc1nnc(-c2cccs2)n1C1CC1)c1ccccc1
  5	8
(63) CC(=O)c1cccc(OCc2cc(C(=O)N(C)Cc3sccc3C)n[nH]2)c1
  4	1
(64) Cc1ccc(S(=O)(=O)NCCn2cncn2)c(C)c1
  1	1
(65) O=C(O)c1ccc(CN2C(=O)SC(Nc3ccccc3C(=O)O)C2=O)cc1 (stereo not drawn)
  -3	1
(66) Cc1cccc(C(=O)N(Cc2cccnc2)c2nc3cc4c(cc3s2)OCCO4)c1
  -7	1
(67) CC(=O)c1c(C)[nH]c(C(=O)OCc2nc(-c3cccs3)no2)c1C
  5	11
(68) COc1ccccc1C(=O)Cn1c(C)c(C(=O)N(C)Cc2ccc(F)cc2)sc1=O
  1	-2
(69) CC(=O)c1ccc(C(=O)N2CCN3CCN(C)C(=O)C3C2)s1 (stereo not drawn)
  3	1
(70) NCc1n[nH]c(=O)n1CCc1ccc(F)cc1
  -1	-2
(71) N#CCCN(CC(F)(F)F)C(=O)Cc1ccc(Br)cc1
  4	3
(72) C=CCN(Cc1csc(COc2ccccc2C(C)C)n1)C(=O)c1ccc(F)cc1
  -6	-7
(73) O=C(c1cc(Cl)c2c(c1)OCO2)N(CC1CCCO1)C1CCS(=O)(=O)C1 (stereo not drawn)
  0	9
(74) COc1cc2c(cc1OC)CN(C1CCCN(C(=O)c3ccc(F)cc3Cl)C1)CC2 (stereo not drawn)
  6&3	5&-2
(75) CC(C)=CC(=O)NC(c1ccccc1)C(F)(F)F (stereo not drawn)
  -1	-1
(76) C=CCN(CC(=O)NC1CCOCC1)CC1CCCCC1
  9	5
(77) CCOC(=O)c1cc([C@@H](C)CCC=C(C)C)sc1NC(=O)c1ccco1
  -6	-9
(78) OC12CC(Cc3cccnc31)c1ccccc12 (stereo not drawn)
  1	26
(79) CCOC(=O)c1cnc2c(Cl)cccc2c1N
  11	10
(80) CCCCc1ccc(N=Cc2nc(/C=C/c3cccc([N+](=O)[O-])c3)oc2O)cc1
  -1	3

Further records.
Each structure is followed by: NPYLR7 agonist	NPYLR7 agonist max-min
(81) O=C(NC1CC(=O)N(CCCc2ccccc2)C1)C1CCCC1 (stereo not drawn)
  9	10
(82) Cc1[nH][nH]c(=O)c1C(c1ccc(C#N)cc1)c1c(C)[nH][nH]c1=O
  8	4
(83) COc1cccc(Cn2nc(C(=O)N3CCCC(O)C3)c3c2CCN(Cc2cccnc2)C3)c1 (stereo not drawn)
  12	0
(84) O=C(Nc1ccc(CNS(=O)(=O)c2ccc3c(c2)CCC3)cc1)c1ccco1
  5	4
(85) COC(=O)[C@@H]1C[C@@H](N(C)C)CN1Cc1cccc(-n2nc(C)cc2C)c1
  6	5
(86) O=C(CC1C=CCC1)N1CCC(OC2CCOC2)CC1 (stereo not drawn)
  -1	-3
(87) O=C(NCc1nnnn1-c1ccccc1)c1ccc(Br)o1
  2	0
(88) CC(=O)NC(CC(C)C)C(=O)O (stereo not drawn)
  12	17
(89) O=C(Oc1cccc2cccnc12)c1ccccc1I
  -13	-15
(90) Cc1c(N2CCOCC2)c(C)n(Cc2cccc(C(F)(F)F)c2)c1C(=O)Nc1ccc(C(C)C)cc1
  13	12
(91) COCCNC(=O)[C@@]1(OCc2cccc(F)c2)CC(OCc2ccccc2C#N)[C@H](O)[C@H](O)C1 (stereo partly drawn)
  2	3
(92) O=C(Nc1cccc(-c2nc3ccccc3o2)c1)c1ccc(Cl)cc1Cl
  3	0
(93) CCCCCCCCC(=O)NCc1nnc(SCc2ccccc2C)n1-c1ccc(C)cc1
  -1	-1

An excerpt; the hit share may differ from the screen's.
